TRPML1 ag – human mucolipin-1 channel agonism; Q9GZU1; TRPML1-expressing cells, Ca2+ dye fluorescence, FDSS; host cell line not named in the record; reference of the full effect not given here; activation, % (test concentration not listed); 410,000 compounds, 0.12% hits; AID 624414; in the data active = activation above about 50%; inconclusive = about 30% to 50%; inactive = below about 30%; also: 0% is about no effect; the text of the record puts the active cut at 80%
Target sequence (Q9GZU1 whole entry, looked up): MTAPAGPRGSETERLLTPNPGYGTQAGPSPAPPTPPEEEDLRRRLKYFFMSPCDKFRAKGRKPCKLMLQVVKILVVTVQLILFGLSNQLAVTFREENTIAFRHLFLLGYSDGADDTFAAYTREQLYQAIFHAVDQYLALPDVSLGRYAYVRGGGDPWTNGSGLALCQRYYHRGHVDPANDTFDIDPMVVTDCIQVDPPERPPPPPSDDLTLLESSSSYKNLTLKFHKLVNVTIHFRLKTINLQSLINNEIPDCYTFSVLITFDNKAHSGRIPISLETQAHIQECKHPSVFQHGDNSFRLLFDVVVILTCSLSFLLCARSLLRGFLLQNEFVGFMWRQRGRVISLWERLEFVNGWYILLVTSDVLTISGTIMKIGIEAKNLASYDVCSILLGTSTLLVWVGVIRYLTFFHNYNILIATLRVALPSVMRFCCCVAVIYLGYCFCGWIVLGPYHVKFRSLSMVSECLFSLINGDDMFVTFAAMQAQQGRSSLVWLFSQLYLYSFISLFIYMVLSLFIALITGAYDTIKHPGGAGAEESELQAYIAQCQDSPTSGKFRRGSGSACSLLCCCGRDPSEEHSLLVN
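Tet-induced TRPML1-DL cells, 1,500 per well, cultured overnight, were loaded with a no-wash Ca2+ dye for 45–90 min. Calcium fluorescence was recorded on the FDSS for 110 s after compound addition, before the EC80 agonist (4 uM 54-4) was added.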
PINK1 modulator – modulators of PINK1 expression; Potency, µM (top dose mostly 76.6 µM), for inactives: at the highest dose activation (PINK1 increase), hits mostly activators; AID 624263; PINK1 immunofluorescence, high-content cytometry, 24 h; 410,000 compounds, 0.2% hits; active = well fitted activation curve with a large enough effect; inconclusive = small, poorly fitted or top-dose-only effect; inactive = flat fitted curve, though single readings scatter; cell line not stated here;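 also: potency is read from the fitted curve at half-maximal effect; % of control where 0% means no effect; nearly all actives have a fitted effect of over 65% in size; a mitochondrial uncoupler was the plate control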
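Cells are seeded, rested 12 hours, then given compound at five concentrations or DMSO for 24 hours. After fixation, blocking and antibody staining, PINK1 amount and mitochondrial localization are scored; CCCP serves as control.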
Menin MLL FP FL – inhibitors of human menin-MLL interaction, wild-type MLL peptide; 290,000 tested, under 10 active; AID 1766; FP activity change, % at 61.4 µM; Fluorescence polarization, fluorescein-MLL peptide displacement from menin; inconclusive = falling polarisation curve, or a change in total fluorescence; inactive = total fluorescence flat and polarisation flat or rising; no compound was filed as active; the % refers to the polarisation; negative = inhibition;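 also: % of control where 0% means no effect; inhibitors lower the polarisation; unlabelled MLL peptide was the positive control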
ClpP mod – qHTS Assay for Activators of ClpP | purified B. subtilis ClpP, FRET peptide cleavage, 20 min | ATP-dependent Clp protease proteolytic subunit (Bacillus subtilis (strain 168)), P80244 | Potency, µM (doses to about 57.5 µM), without a hit: at the highest dose activity change, negative = active | 340,000 compounds, 1.9% hits | AID 651965, 2013; active = well fitted falling curve with a large enough effect; inconclusive = small, poorly fitted or top-dose-only effect; inactive = no such curve, though single readings can be large or run the other way; also: potency is read from the fitted curve at half-maximal effect; the source files actives as falling curves though it sought activators and does not explain the sign; nearly all actives have a fitted effect of over 65% in size; many hits overshoot -100%
Target sequence (P80244 whole entry, looked up): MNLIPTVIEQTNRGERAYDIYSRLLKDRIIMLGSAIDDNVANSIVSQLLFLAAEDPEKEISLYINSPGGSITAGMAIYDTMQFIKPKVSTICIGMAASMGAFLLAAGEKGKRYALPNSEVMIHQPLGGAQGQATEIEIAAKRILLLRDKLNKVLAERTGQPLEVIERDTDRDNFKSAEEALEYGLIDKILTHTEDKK
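FRET quenching reversal measured ClpP activation: 10 microg/mL B. subtilis ClpP at pH 8 with the FRET-FV decapeptide, read at 430 nm after 320 nm excitation. The 20-min minus 0-min signal was scaled between DMSO/no-enzyme wells and ADEP (5.8 microM final).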
TRPV1 potentiator – enhances activation of the human vanilloid receptor TRPV1 | Q8NER1 | TRPV1-expressing cells, Fluo-8 calcium influx, capsaicin EC20 potentiation; host cell line not named in the record; control for the full effect not named in the record | potentiation, % at 8.33 µM | 320,000 compounds, 0.02% hits | AID 540277; active means potentiation above 80%; inconclusive means 30% to 80%; inactive means below 30%; also: 0% is about no effect
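Fluo-8 calcium influx in TRPV1-expressing cells, kinetic read (ex 480/em 520 nm). Compound added and read 3 min for agonist activity, followed by capsaicin at EC20 final and 2 min further read for enhancement.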
TRPML1 inh – human mucolipin-1 channel inhibition. Q9GZU1. TRPML1-inducible cells, Ca2+ dye fluorescence, FDSS; hits give low values; inhibition of EC80 agonist-evoked calcium signal. activity change, negative = inhibition, % (concentration not given with the values). 390,000 compounds, 0.02% hits. AID 624415; in the data active means activity change below about -50%; inconclusive means about -30% to -50%; inactive means above about -30%;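 also: stimulus is agonist 54-4 at its EC80 concentration; % is scaled to controls: 0 for no effect and ±100 for the full control effect; the text of the record puts the active cut at -80%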
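Tet-induced TRPML1-DL cells loaded with Ca8 no-wash calcium dye were read kinetically on FDSS. Compound addition was followed by EC80 agonist 54-4 (4 uM final); inhibition was read over 110 s.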
Sfp PPTase inh – inhibitors of Bacillus subtilis Sfp phosphopantetheinyl transferase; Q9F4F7; Biochemical Sfp PPTase activity, qHTS; Potency, µM, for inactives: max response, negative = inhibition, actives largely listed as inhibitors; 310,000 compounds, 3.5% hits; active = well fitted inhibition curve with a large enough effect; inconclusive = small, poorly fitted or top-dose-only effect, or another doubt; inactive = no such curve, though single readings can be large or run the other way;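 also: the enzyme is Sfp with the accession as filed and its product quenches rhodamine fluorescence; potency is read from the fitted curve at half-maximal effect; 0% = enzyme reaction without inhibitor and -100% = no enzyme wells; top concentration of the series not given in the record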
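Reaction rates are the 30-min fluorescence difference (ex 525, em 598 nm) in wells containing 15 nM Sfp, 5 uM rhodamine-CoA and 12.5 uM BHQ-2-YbbR at pH 7.6 with 10 mM MgCl2.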
An asterisk follows results filed as active; ? = inconclusive; nt = not tested or not shown; & = joins results of further samples; [ ] = dose if it differs, or a comment.

SMILES	TRPML1 ag	PINK1 modulator	Menin MLL FP FL	ClpP mod	TRPV1 potentiator	TRPML1 inh	Sfp PPTase inh
CCN(c1ccccc1)S(=O)(=O)c1ccc(C(=O)NCC(=O)Nc2ccc(F)c(F)c2F)cc1	-1.3	7.8%	nt	0.2%	nt	-2	nt
Cc1c(C(=O)N2CCCCCC2)oc2ccccc12	3.4	1.7%[38.3 µM]	-0.7	-0.2%	-8	-2	16%
Cc1ccc([N+](=O)[O-])cc1NC(=O)CSc1nncc2ccccc12	-1.2	3.3%	nt	1.3%	26	-11	-6%
O=C1Cc2cc(NS(=O)(=O)c3ccc(F)cc3)cc3c2N1CCC3	-0.2	2.0%	nt	-2.0%	1	24	nt
O=C(O)CN(CCc1ccccc1)S(=O)(=O)c1ccccc1	0.1	-0.6%	0.5	-1.1%	8	36	-1%
Cc1ccc(C(=O)CN(CCC(=O)O)S(=O)(=O)c2ccc([N+](=O)[O-])cc2)cc1	-0.5	1.4%	nt	0.7%	-16	18	nt
c1ccc2sc(NC3=NCN(CC4CCCO4)CN3)nc2c1 (centres undefined)	-0.3	-0.3%	0.2	nt	-1	16	16%
Cc1c(C(=O)C(=O)N2CCN(C)CC2)c2ccccc2n1C	0.1	2.4%	4.4	13µM*	3	15	9%
CN(C)S(=O)(=O)c1ccc(NC=C(C#N)C#N)cc1	nt	1.3%	3.0	?	-2	nt	0%
COc1ccccc1C(=O)NC(=O)COC(=O)c1nccnc1N	0.2	-0.8%	nt	1.0%	nt	0	nt
Cc1cccc(NC(=O)C2CCCN2C(=O)OCC(C)C)c1 (centres undefined)	-0.8	-6.5%[38.3 µM]	6.5	-0.4%	-20	-1	3%
COc1cc(/C=C/C(=O)OCC(=O)N(C)CC(=O)Nc2ccc(F)cc2)ccc1OC(F)F	0.3	2.1%	nt	?	-3	9	nt
O=C(NCCc1ccccc1)c1nc(CS(=O)(=O)c2ccc(Cl)cc2)no1	3.2	1.3%	0.0	0.1%	8	17	5%
NC(=O)c1cccnc1Oc1ccccc1	-0.3	-0.3%	-1.3	nt	30	1	-1%
N#CCSc1nnc(-c2ccc(S(=O)(=O)N3CCOCC3)cc2)n1CC1CCCO1 (centres undefined)	1.0	-1.2%	-0.9	-12%	4	15	15%
CCOc1ccc(C(NC(=O)c2ccco2)c2ccc(OC)c(OC)c2)cc1 (centres undefined)	0.1	-0.2%[38.3 µM]	0.7	0.1%	11	-6	-10%
CCCCOc1ccc(C2=CSC3=NCCN23)cc1[N+](=O)[O-]	-0.9	3.7%	-1.1	0.1%	2	-9	7%
COC(=O)[C@H](CCSC)NC(=O)NCc1ccc(S(N)(=O)=O)cc1	3.0	1.2%[38.3 µM]	-0.5	0.6%	nt	15	12%
CC(=O)N1CCCc2cc(S(=O)(=O)Nc3ccc(C)cc3C)ccc21	-0.9	5.0%	6.0	-0.6%	-3	-11	-16%
CC(NS(=O)(=O)c1ccccc1)C(c1cccs1)N1CCN(c2ccccc2)CC1 (centres undefined)	4.3	-2.4%[38.3 µM]	3.4	-19%	10	29	-6%
O=C(CCS(=O)(=O)c1cccc2nonc12)Nc1ccc(F)cc1F	-0.1	1.0%	nt	0.5%	nt	31	nt
O=C(c1ccccc1)c1ccc(C(=O)N2CCN(c3ccc(O)cc3)CC2)cc1	0.7	-1.1%	nt	-0.2%	nt	43	nt
CN(CCc1ccccn1)C(=O)c1cccnc1Oc1ccccc1	-0.6	1.9%	4.7	-0.5%	16	5	9%
O=C(O)c1ccccc1C(=O)Nc1ccc(S(=O)(=O)Nc2nccs2)cc1	0.3	0.4%	-3.9	-0.5%	9	-8	19%&3%
C=CCN1C(=O)c2ccc(C(=O)N(CC)CC(=O)Nc3ccc(OC)cc3)cc2C1=O	-0.5	1.3%	nt	nt	21	9	nt
Continuation.
SMILES	TRPML1 ag	PINK1 modulator	Menin MLL FP FL	ClpP mod	TRPV1 potentiator	TRPML1 inh	Sfp PPTase inh
N#Cc1c(NC2CCCCC2)nc(-c2ccco2)c2c1CCCC2	-0.6	7.5%	4.4	7.1µM*	0	?	?
COc1ccc(C2CC(c3ccc(C(F)(F)F)cc3)=NN2c2ccc(S(N)(=O)=O)cc2)cc1 (centres undefined)	-0.7	-0.3%	nt	4.8%	nt	10	nt
COc1cc(C(=O)N2CCN(S(=O)(=O)c3ccc(C)cc3)CC2)ccc1OCc1c(C)noc1C	0.7	2.5%	-3.1	0.1%	1	45	9%
Cc1[nH]nc2c1/C(=N\O)CCC2	-0.2	-0.8%	-1.9	nt	12	14	12%
CN1C(=O)C(C)(C)c2cc(S(=O)(=O)NCC(=O)NCc3ccccc3)ccc21	-0.7	1.7%	-3.3	0.4%	8	-1	5%
COC(=O)c1cccc(Cn2nnc3sc4c(c3c2=O)CCC(C(C)(C)C)C4)c1 (centres undefined)	4.0	3.6%	nt	-0.5%	nt	-18	nt
N=c1oc2ccc(Cl)cc2cc1C(=O)Nc1ccc(F)cc1	-0.9	11%	-2.4	0.0%	8	-13	-4%
C[C@H](NC(=O)c1ccc(C(C)(C)C)cc1)C(=O)N1CCC2(CC1)NCCc1[nH]cnc12	-0.5	-1.2%	nt	-1.7%	4	9	4%
O=C(Nc1nc2ccc(Oc3ccccc3)cc2s1)c1cc([N+](=O)[O-])ccc1N1CCOCC1	-0.2	-0.7%	3.7	1.4%	4	4	-24%
CC(=O)Oc1ccc(-c2ccc(C(=O)NCCc3ccc(S(N)(=O)=O)cc3)cc2)cc1	0.3	2.2%	-0.5	nt	6	10	8%
COc1ccc(C(=O)N2CCCc3ccccc32)cc1Br	0.7	-0.2%	0.0	-3.6%	-5	3	17%
Cc1ccc(NC(=O)CSc2nc3c(c(=O)[nH]2)CCCC3)cc1C	1.5	1.0%	nt	0.5%	5	11	12%
COc1cccc2c1OC[C@@H](CO)[C@H]2N(C)C(=O)Nc1ccc(Cl)cc1Cl	0.4	0.1%	9.4	0.7%	nt	41	19%
COc1ccccc1N(CC(=O)NCc1ccccc1)S(C)(=O)=O	0.0	-1.4%	-0.4	2.0%	nt	-10	-2%
Cn1nccc1NC(=O)Nc1cccc(Cl)c1Cl	0.3	0.0%	-0.8	nt	17	14	-4%
COCCn1c(SCC(=O)N2CC(=O)Nc3ccccc32)nc2ccccc2c1=O	0.6	-1.2%	10	-1.8%	-5	8	6%
CCOC(=O)CN1NC2(CCCCC2)NC1=S	1.9	-2.0%	1.5	0.9%	-4	-1	28µM*
CCCc1ccc(S(=O)(=O)N2CCC(c3nnc(-c4cccc(C)c4)o3)CC2)cc1	1.6	0.6%	nt	-2.7%	nt	-6	nt
O=C1NN=C(CSc2n[nH]c(=S)s2)CS1	2.2	1.5%	-1.1	1.5%	1	1	?
CNc1nc2c(c(=O)n(C)c(=O)n2C)n1CC(O)COc1ccc(OC)cc1 (centres undefined)	-0.5	1.1%	nt	0.0%	nt	5	nt
NC(N)=NN=C(c1ccc(F)cc1)c1ccc(C(F)(F)F)cc1	1.7	-3.5%	nt	1.5%	nt	25	nt
OC[C@@H]1CN(Cc2cccnc2)C[C@H](n2cnc3c(NC4CCCC4)ncnc32)O1	-0.7	-0.9%	nt	-2.4%	nt	nt	nt
COCOCCn1cc(CN2CCS(=O)(=O)N(Cc3ccc(-c4ccc(OC)cc4)cc3)C(CC(C)C)C2=O)nn1 (centres undefined)	4.4	-1.4%	nt	?	nt	6	nt
Cc1ccc(COc2ccc(C(=O)NN)cc2)cc1	-0.3	2.8%	2.8	0.6%	-3	0	8%
Cc1ccc(C)c(Oc2cc(F)nc(N)n2)c1	-0.7	1.2%	3.3	18µM*	23	74	18%
Following part
SMILES	TRPML1 ag	PINK1 modulator	Menin MLL FP FL	ClpP mod	TRPV1 potentiator	TRPML1 inh	Sfp PPTase inh
O=C(Nc1nc(-c2cccs2)c(-c2ccccc2)s1)c1ccco1	3.0	5.0%	7.5	?	5	15	?
O=C(Nc1cc(-c2nc3ncccc3o2)ccc1Cl)c1ccc([N+](=O)[O-])o1	1.5	0.6%	1.5	nt	-6	-12	11%
CCOc1cccc(OCCCCN2CCOCC2)c1	0.2	-0.8%	-2.1	-1.8%	9	16	-26%
Cc1cc(C(=O)N2CCN(S(C)(=O)=O)CC2)sc1-c1ccccc1	-0.3	17%[38.3 µM]	4.0	-1.6%	-13	-6	12%
Cc1cc(N/C(=N\S(=O)(=O)c2ccc(Cl)cc2)c2ccc(F)cc2)no1	-0.8	-0.8%	-0.8	0.8%	2	-7	13%
O=C(NCC(c1cccnc1)N1CCN(c2ccccc2)CC1)OCc1ccccc1 (centres undefined)	-0.9	-1.8%	6.0	-0.4%	13	4	7%
O=C1NC(c2ccccc2)Cc2ccncc21 (centres undefined)	0.6	-0.7%	nt	0.6%	nt	4	nt
COc1ccc(CC(=O)NCc2ccccn2)cc1OC	-0.7	0.0%	-1.3	1.2%	17	-9	23%
O=C(COc1ccc2c3c(c(=O)oc2c1)CCCC3)N1CCN(c2ccc(F)cc2)CC1	-0.6	2.2%	nt	3.3%	-8	23	4%
Cc1nc(=O)c(-c2ccccc2)c(C)n1-c1ccccc1	0.5	0.4%	-4.4	1.7%	-6	40	5%
CC1CCN(S(=O)(=O)CCNC(=O)c2ccc3c(c2)OCO3)CC1	-0.3	2.1%	nt	nt	11	13	nt
C=CCC(CC=C)(C(=O)O)c1ccccc1	-0.7	-0.4%	-0.4	-3.9%	-3	5	6%
O=C(CSCc1ccc(Cl)cc1)Nc1ccc(-c2nnc(-c3ccccc3)o2)cc1	-0.1	-2.4%	1.1	?	-11	5	-1%
O=C(N/N=C/c1ccc(N2CCOCC2)c([N+](=O)[O-])c1)c1ccc(F)cc1	1.2	14%	0.2	-1.4%	-8	10	7%

Entries of single compounds, quoted from the list.
Profile of `COc1ccc(CC(=O)NCc2ccccn2)cc1OC` : TRPML1 ag: -0.7; PINK1 modulator: 0.0%; Menin MLL FP FL: -1.3; ClpP mod: 1.2%; TRPV1 potentiator: 17; TRPML1 inh: -9; Sfp PPTase inh: 23%
Profile of `O=C1NC(c2ccccc2)Cc2ccncc21` (centres undefined) : TRPML1 ag: 0.6; PINK1 modulator: -0.7%; Menin MLL FP FL: nt; ClpP mod: 0.6%; TRPV1 potentiator: nt; TRPML1 inh: 4; Sfp PPTase inh: nt

High-throughput results as filed in PubChem.
